Rango complex inh: inhibitors of Rango-importin beta complex formation | AID 540263 | Rango CFP/YFP FRET sensor + importin beta, 45 min | 340,000 compounds, 0.031% hits | Q14974 | Potency, µM (highest dose often 92.2 µM), inactives show at the top dose inhibition of complex formation; active = rising FRET ratio curve, often small or poorly fitted; inconclusive = mostly compound fluorescence or quenching in the first reads; inactive = flat curves in all reads;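 further: potency means the concentration at half of the fitted maximal effect; 0% = DMSO wells and 100% = buffer wells lacking importin beta; nearly all actives have a fitted effect of over 15% in size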
Target sequence (Q14974 whole entry, looked up): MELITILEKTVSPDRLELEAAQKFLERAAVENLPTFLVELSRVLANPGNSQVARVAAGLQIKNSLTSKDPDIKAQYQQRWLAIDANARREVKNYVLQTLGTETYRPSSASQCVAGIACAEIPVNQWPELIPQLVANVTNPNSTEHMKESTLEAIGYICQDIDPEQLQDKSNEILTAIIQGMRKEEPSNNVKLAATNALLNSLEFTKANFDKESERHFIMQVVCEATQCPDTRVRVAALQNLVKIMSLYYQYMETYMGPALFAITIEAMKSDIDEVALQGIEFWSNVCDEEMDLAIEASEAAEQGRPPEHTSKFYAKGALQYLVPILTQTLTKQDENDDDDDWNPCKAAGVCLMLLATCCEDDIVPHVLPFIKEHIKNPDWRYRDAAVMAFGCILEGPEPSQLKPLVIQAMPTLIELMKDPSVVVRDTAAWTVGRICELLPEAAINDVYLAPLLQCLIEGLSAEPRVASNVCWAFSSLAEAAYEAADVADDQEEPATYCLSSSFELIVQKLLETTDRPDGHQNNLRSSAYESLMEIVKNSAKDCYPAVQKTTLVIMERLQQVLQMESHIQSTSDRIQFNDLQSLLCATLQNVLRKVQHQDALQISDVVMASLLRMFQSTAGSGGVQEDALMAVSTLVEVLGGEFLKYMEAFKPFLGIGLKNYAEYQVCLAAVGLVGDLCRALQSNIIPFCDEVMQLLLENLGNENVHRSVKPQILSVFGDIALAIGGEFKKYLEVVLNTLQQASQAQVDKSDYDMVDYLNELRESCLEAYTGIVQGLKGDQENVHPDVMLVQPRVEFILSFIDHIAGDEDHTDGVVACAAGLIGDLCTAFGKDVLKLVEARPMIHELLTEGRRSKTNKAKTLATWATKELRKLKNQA
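Inhibition scored from the CFP 486 nm/YFP 530 nm FRET ratio 45 min after adding 0.125 microM importin beta to 50 nM Rango biosensor preincubated 5 min with compound (room temperature, PBS with DTT, Tween-20, BSA). No-importin wells as positive control.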
GLA inh pH 4.5: alpha-galactosidase A (human) inhibition, pH 4.5. P06280. purified enzyme, 4-MU-alpha-Gal fluorescence, pH 4.5. activity change, negative = inhibition, % at 105 µM. 230,000 tested, under 10 active; inconclusive = small, poorly fitted or top-dose-only inhibition, or a rising curve; inactive = flat fitted curve, though single readings scatter; no compound was filed as active;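 further: 0% = full activity with enzyme and -100% = basal without enzyme; dose as in the result columns while the protocol names 77 µM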
miR-21 FLuc: miR-21 reporter, rising signal | 340,000 tested, under 10 active | HeLa miR-21 FLuc reporter, luciferase, 48 h | Potency, µM (highest dose often 38.3 µM), for the others: top-dose reporter change, positive = more light; active = well fitted rising curve with a large enough effect; inconclusive = small, poorly fitted or top-dose-only effect; inactive = no such curve, though single readings can be large or run the other way;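 further: % of control where 0% means no effect; miR-21 action dims this reporter so a rising signal means less miR-21 action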
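Using DMEM plus 10% FBS, HeLa miR-21-FLuc cells are incubated with test compounds (final up to about 40uM) for 48 hours; firefly luciferase signal is then imaged following reagent-mediated lysis.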
Rango dissoc inh: prevents RanGTP from dissociating the Rango-importin beta complex; O95149+P62826; Biochemical FRET Rango-importin beta, RanGTP-induced dissociation; Potency, µM (doses to about 46.1 µM), for inactives: at the highest dose activity change, negative = inhibition; 340,000 compounds, 0.071% hits; AID 540253; active means falling FRET ratio curve, often poorly fitted, with flat reads before Ran was added; inconclusive means other falling curves, or compound fluorescence or quenching; inactive means flat or rising ratio curve;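 further: potency means the concentration at half of the fitted maximal effect; % of control where 0% means no effect; nearly all actives have a fitted effect of over 45% in size; -100% = wells without RanGTP and RCC1; the record marks most hits as doubtful in a second field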
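Recombinant Rango FRET biosensor (EYFP–snurportin 1 IBB–cerulean CFP10) at 0.1 uM premixed with 0.25 uM importin beta in PBS, 1 mM DTT, 0.02% Tween-20, 0.1% BSA. Compound added 5 min; RanGTP-RCC1 (0.6 uM Ran, 2 mM GTP, 0.2 uM RCC1) then triggers release, read at 45 min.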
Numbers without * were called inactive; ? = inconclusive; · = not tested or not shown.

smiles | GLA inh pH 4.5 | Rango complex inh | Rango dissoc inh | miR-21 FLuc
Cc1cc(C)c(C(=O)N2CCCC(CNS(=O)(=O)c3cccs3)C2)o1 (configuration not stated) | · | -0.8% | -12% | 1%
COc1ccc(OCC(=O)N2CCN(c3nnc(-c4ccccc4)c4ccccc34)CC2)cc1 | -23 | -2.6% | -1% | 27%
Cc1cc(C)c(NC2=NS(=O)(=O)c3ccccc32)c(C)c1 | 9 | -0.2% | 15% | -4%
COc1ccc(S(=O)(=O)N(CC(=O)N2CCN(C)CC2)C2CCCCC2)cc1OC | 0 | -0.3% | 0% | 0%
COC(=O)Cc1ccc(NC(=O)c2ccc3c(c2)C(=O)N(CC2CCCO2)C3=O)cc1 (configuration not stated) | · | -2.2% | -6% | 3%
CC(C)C(Cl)=NOC(=O)Nc1ccc(F)cc1 | · | ? | -10% | ·
Nc1ccc(C(=O)OCCc2ccccc2)cc1 | · | -1.4% | 7% | ·
NC(=O)CSc1nccn1Cc1ccc(Cl)cc1 | 2 | ? | -21% | 3%
Cn1c(N)c(C(=O)CSc2nc(N)cc(=O)[nH]2)c(=O)n(C)c1=O | -6 | -7.0% | -4% | 1%
O=C(NCC(c1ccco1)N1CCCCC1)C(c1ccccc1)c1ccccc1 (configuration not stated) | -18 | -1.2% | 0% | 4%
CN(C(=O)c1cnc(N2CCN(c3ncccn3)CC2)c2ccccc12)c1ccc(Cl)cc1 | -11 | 3.2% | -7% | -1%
COc1ccccc1C(=O)NCCC(=O)Nc1ccc(S(=O)(=O)Nc2ncccn2)cc1 | · | 0.0% | 8% | ·
COc1ccc(/C=C(/C(=O)c2ccc(Cl)cc2Cl)n2cncn2)cc1 | 2 | 13% | 7% | -5%
O=C(Nc1ccccc1OC(F)F)c1cccc(S(=O)(=O)N2CCCC2)c1 | · | -0.5% | -10% | 0%
COc1ccc(S(=O)(=O)NC(C(=O)NCCc2ccccn2)C(C)C)cc1 (configuration not stated) | -2 | ? | 21% | -1%
CCOC(=O)COc1coc(CN2CCN(c3cccc(Cl)c3)CC2)cc1=O | · | 8.6% | -1% | 3%
COC(=O)c1cc(NS(=O)(=O)c2ccc(NCc3cccnc3)c([N+](=O)[O-])c2)cc(C(=O)OC)c1 | 1 | 0.1% | -4% | -1%
COc1ccccc1CNC(=O)c1ccc(OCC2CCCO2)cc1 (configuration not stated) | 0 | -2.7% | 8% | -10%
O=S(=O)(c1ccc(F)c(F)c1)N1CCN(c2ncccn2)CC1 | · | -0.4% | -2% | 9%
CCCCNCc1cc2ccccc2o1 | -1 | 1.1% | 17% | 1%
CC(C)(C)c1ccc(C(=O)NCC(=O)OCN2C(=O)c3ccccc3C2=O)cc1 | -2 | 0.4% | 1% | -12%
S=C(NCc1ccccc1)N1CCN(Cc2ccc3c(c2)OCO3)CC1 | 3 | 2.4% | 1% | 0%
O=C(Nc1ccc(F)cc1)N(CCCN1CCOCC1)Cc1cc2cc3c(cc2[nH]c1=O)OCO3 | 1 | 0.1% | -1% | 0%
CC(=O)c1cc2c(cc1NC(=O)c1ccc(-n3nc(C)cc3C)cc1)OCO2 | · | 2.4% | ? | ·
CCOC(=O)C(C)On1c(-n2nc(C)cc2C)nc2ccccc2c1=O (configuration not stated) | · | 1.9% | 2% | -8%
O=C(CN1C(=O)/C(=C2\SC(=S)N(C3CCS(=O)(=O)C3)C2=O)c2ccccc21)Nc1ccc(F)cc1 (configuration not stated) | -2 | 0.3% | 9% | -4%
CC(C)C(NC(=O)c1ccccc1)C(=O)OCn1nnc2ccccc2c1=O (configuration not stated) | · | -1.0% | 4% | ·
CCOC(=O)Cc1csc(NC(=O)CSc2ccc(Br)cc2)n1 | -8 | -1.6% | 6% | -2%
COC(=O)c1ccc(CSc2nc3sc4c(c3c(=O)n2C)CCCC4)o1 | 0 | -1.2% | 35% | -5%
COc1cc(C2/C(=C(\O)c3cc(C)ccc3C)C(=O)C(=O)N2CCN(C)C)ccc1O (configuration not stated) | -1 | -1.7% | 6% | -6%
Cc1ccc(SCCNC(=O)C(C)C)cc1 | -6 | -3.9% | 7% | -11%
Cc1cc(C)c(C)c(S(=O)(=O)N2CCC(C(=O)NCCCN3CCOCC3)CC2)c1C | · | 0.3% | 6% | ·
COc1ccc(/C=N/NC(=O)c2ccc(Cl)cc2)cc1COC(C)=O | 3 | ? | ? | -10%
COc1ccc2nc(N3C(=O)/C(=C/c4ccc(Cl)cc4)NC3=S)sc2c1 | 6 | ? | -20% | -5%
CCCCN(C(=O)C1CC(=O)N(CCc2ccc(OC)c(OC)c2)C1)c1c(N)n(CCCC)c(=O)[nH]c1=O (configuration not stated) | · | 0.2% | ? | ·
Cc1ccc2nccc(C(=O)N3CCCC(Nc4ccc(C)c(C)c4)C3)c2c1 (configuration not stated) | · | 7.9% | -9% | 2%
NNc1cc([N+](=O)[O-])cc2c1C(=O)N(Cc1ccccc1)S2=O (configuration not stated) | -22 | 0.0% | 16% | -1%
O=C(NCc1ccc(F)cc1)C1CCC(CNS(=O)(=O)c2cccs2)CC1 (configuration not stated) | · | 1.9% | -8% | 10%
Clc1ccc2c(c1)C1CC2CCN1Cc1ccccc1 (configuration not stated) | · | -0.5% | 6% | ·
CC1CCC2(CC1)NC(=O)N(CC(=O)NC1(C#N)CCCCC1)C2=O (configuration not stated) | · | -1.8% | 9% | ·
CCN(C(=O)Cc1ccccc1OC)c1nnc(-c2ccncc2)s1 | 1 | -2.0% | 3% | 0%
CC(C)Oc1ccc(/C=N/NC(=O)c2nnn(-c3nonc3N)c2CN(C)c2ccccc2)cc1 | · | 1.2% | -17% | 8%
CCC(C)N1C(=O)N(c2cccc(Cl)c2)C(C)(O)CC1(C)C (configuration not stated) | · | 0.8% | 1% | -3%
N#Cc1ccc(C(=O)Nc2cccc3ccccc23)c(F)c1 | · | -5.5% | 2% | -14%
CCOC1(C)OCC(=O)[C@]2(CCC3C4CCC5=CC(=O)C=CC5(C)C4C(=O)CC32C)O1 (some centres not stated) | -5 | -6.2% | 2% | -27%
COCC(C)NC(=O)c1ccc2nc(-c3ccccc3)c(-c3ccccc3)nc2c1 (configuration not stated) | · | 1.1% | 2% | 9%
O=C(NC(NC(=O)c1c(F)cccc1F)c1ccc([N+](=O)[O-])cc1)c1c(F)cccc1F | · | -1.3% | 11% | -16%
Cc1ccc(Nc2c(-c3ccco3)nc3ccccn23)cc1 | 10 | -5.4% | ? | -40%
Cc1cc(SCC(=O)Nc2cccc(S(=O)(=O)NC3=NCCCCC3)c2)nc2ccccc12 | -9 | -0.3% | -15% | 9%
O=C(NC(=S)N1CCCC1)c1ccc(Cl)cc1 | · | -5.3% | 14% | -5%
CCN(CCO)C(=O)c1ccc2nc(Cc3cccc(Cl)c3)oc2c1 | · | 2.0% | 0% | -21%
COC(=O)c1cccnc1NC(=S)NNC(=O)c1ccncc1 | 5 | -1.0% | 2% | 0%
CC(C)CC(C(=O)OCC(=O)N1CCN(c2ccccc2)CC1)N1C(=O)c2ccccc2C1=O (configuration not stated) | · | 4.2% | 2% | ·
CC(=O)N/N=C(\C)c1ccc2c(c1)OCCO2 | -2 | -0.7% | 17% | -13%
S=C(Nc1ccccc1Cl)N(CCCN1CCOCC1)Cc1ccco1 | -5 | 4.7% | 8% | -10%
Cc1cc(C)n(Cc2ccc(C(=O)NCCC3=CCCCC3)o2)n1 | 5 | -1.4% | -2% | -33%
CCOC(=O)C1=C(C)N(C)C(=O)NC1c1cccc([N+](=O)[O-])c1 (configuration not stated) | · | -1.5% | -2% | ·
COc1ccccc1-c1nc(-c2ccc(Br)cc2)no1 | 4 | -5.6% | -1% | -39%
O=C1COc2ccc(C(=O)COC(=O)Cc3ccc(F)cc3)cc2N1 | · | 0.6% | -5% | ·
CCOc1ccc(N(C(C)C(=O)N/N=C(\C)c2cccc(NC(=O)c3ccccc3)c2)S(C)(=O)=O)cc1 (configuration not stated) | 6 | 1.1% | -10% | 10%

Some of these compounds in order of formula weight, highest first.
smiles | GLA inh pH 4.5 | Rango complex inh | Rango dissoc inh | miR-21 FLuc
CCOc1ccc(N(C(C)C(=O)N/N=C(\C)c2cccc(NC(=O)c3ccccc3)c2)S(C)(=O)=O)cc1 (configuration not stated) | 6 | 1.1% | -10% | 10%
Cc1cc(SCC(=O)Nc2cccc(S(=O)(=O)NC3=NCCCCC3)c2)nc2ccccc12 | -9 | -0.3% | -15% | 9%
CC(C)CC(C(=O)OCC(=O)N1CCN(c2ccccc2)CC1)N1C(=O)c2ccccc2C1=O (configuration not stated) | · | 4.2% | 2% | ·
CCOC1(C)OCC(=O)[C@]2(CCC3C4CCC5=CC(=O)C=CC5(C)C4C(=O)CC32C)O1 (some centres not stated) | -5 | -6.2% | 2% | -27%
COCC(C)NC(=O)c1ccc2nc(-c3ccccc3)c(-c3ccccc3)nc2c1 (configuration not stated) | · | 1.1% | 2% | 9%
CCN(CCO)C(=O)c1ccc2nc(Cc3cccc(Cl)c3)oc2c1 | · | 2.0% | 0% | -21%
O=C1COc2ccc(C(=O)COC(=O)Cc3ccc(F)cc3)cc2N1 | · | 0.6% | -5% | ·
COC(=O)c1cccnc1NC(=S)NNC(=O)c1ccncc1 | 5 | -1.0% | 2% | 0%
Cc1cc(C)n(Cc2ccc(C(=O)NCCC3=CCCCC3)o2)n1 | 5 | -1.4% | -2% | -33%
N#Cc1ccc(C(=O)Nc2cccc3ccccc23)c(F)c1 | · | -5.5% | 2% | -14%
Cc1ccc(Nc2c(-c3ccco3)nc3ccccn23)cc1 | 10 | -5.4% | ? | -40%
O=C(NC(=S)N1CCCC1)c1ccc(Cl)cc1 | · | -5.3% | 14% | -5%
CC(=O)N/N=C(\C)c1ccc2c(c1)OCCO2 | -2 | -0.7% | 17% | -13%

Remaining list, next part.
smiles | GLA inh pH 4.5 | Rango complex inh | Rango dissoc inh | miR-21 FLuc
O=C(Cn1cc2c(n1)CCCC2)N1CCCC1 | -3 | 0.0% | 1% | -1%
COCC(C)NC(=S)NCCc1ccc(Cl)cc1Cl (configuration not stated) | -11 | 0.9% | 7% | -1%
Cc1ccc(OCC(=O)Nc2ccc3c(c2)OCO3)cc1C | -3 | 4.0% | 1% | -29%
Cc1cc(=O)oc(C)c1C(=O)N1CCc2c([nH]c3ccccc23)C1C(C)C (configuration not stated) | 0 | ? | ? | -7%
O=C(N/N=C/c1ccccn1)c1ccc(NC(=O)c2ccccc2Cl)cc1 | · | 3.4% | 7% | 2%
CC(=O)Nc1ccc(C(=O)N/N=C/C2CC3C=CC2C3)cc1 (configuration not stated) | 4 | -1.5% | 0% | -1%
O=C(Nc1sc2c(c1C(=O)O)CCCC2)c1ccc(F)cc1 | · | 2.6% | 5% | 20%
CC(C)OC(=O)CSc1nnc2c(n1)[nH]c1ccc(F)cc12 | 11 | -4.0% | -1% | 4%
O=C(O)c1cc(N/N=C/c2ccc(N3CCOCC3)cc2)ccc1Cl | -2 | ? | -16% | -62%
O=C(O)c1ccc(N=NN2CCCC2)cc1 | 5 | 0.3% | -4% | -38%
CCOC(=O)C1CCCN(C(=O)c2ccc3nc(-c4ccc(OC)c(OC)c4)c(-c4ccc(OC)c(OC)c4)nc3c2)C1 (configuration not stated) | · | ? | ? | 3%
CC(NC(=O)c1ccc(Cl)s1)C1CCCO1 (configuration not stated) | 2 | 0.0% | 0% | -5%
CCN(CC(=O)Nc1ccc(OC)cc1)C(=O)CN1C(=O)NC(C)(c2ccc3ccccc3c2)C1=O (configuration not stated) | · | -1.6% | 5% | 8%
O=C(Nc1ncccn1)C1c2ccccc2Oc2ccccc21 | 6 | -0.7% | 14% | 2%
Cc1c(C(=O)NCCN2CCCC(O)C2)oc2c(F)cccc12 (configuration not stated) | · | -0.3% | -12% | -8%
O=C(COC(=O)CNC(=O)c1ccccc1F)NCC(F)(F)F | 2 | -4.3% | 0% | -1%
CCN(CC)S(=O)(=O)c1ccc(NC(=O)c2ccc(CN3CCOCC3)cc2)cc1 | 5 | -0.1% | 3% | ?
Cc1occc1C(=O)Nc1cccc(S(=O)(=O)N2CCOCC2)c1 | · | -1.2% | -11% | ·

Screens from PubChem.

An excerpt (hit frequency here may not be typical).
